Source: PubChem BioAssay (SRMLSC)
H5N1 antiviral: MDCK cell protection from H5N1 avian flu; 96,000 tested, 0.07% active; cytopathic effect, luminescence, 72 h; stronger effect = higher value; no value below 0 was filed and about half of the inactive calls have no number; reference of the scale not given here; inhibition, % at 50 µM; AID 740, 2007; in the data active means inhibition above about 25%
Numbers without * were called inactive.

Screening COC(=O)c1ccc(N2CCN(S(=O)(=O)c3ccc(Br)cc3)CC2)c([N+](=O)[O-])c1 returned H5N1 antiviral 5.6.
`C(=C\c1ccccc1)/C=N/n1cnnc1` gave H5N1 antiviral 0.3.
COC(=O)c1cc(Br)c(=O)n(Cc2ccc3c(c2)OCO3)c1 was read as H5N1 antiviral 0.2.
For CCNC(=O)CC(=O)Nc1ccccc1C(=O)O the results were H5N1 antiviral 0.4.
COc1nc(NS(=O)(=O)c2ccc(C)cc2)nc(C)c1Cl was read as H5N1 antiviral 0.1.
For COc1ccc(OC)c(CCNC(=O)CS(=O)(=O)Cc2nc(-c3ccc(C)cc3)oc2C)c1 the results were H5N1 antiviral 0.5.
`C/C(=N/NC(=O)CNc1ccc(C)cc1)c1ccc(Cl)cc1` gave H5N1 antiviral 0.5.
Screening CCCCCn1c(Br)nc2c1c(=O)n(CC(N)=O)c(=O)n2C returned H5N1 antiviral 0.3.
For CCc1ccc(OCCNC(=O)c2cc(SC)ccc2Cl)cc1 the results were H5N1 antiviral inactive.
`CCOc1ccccc1NC(=O)C1CCCN(S(=O)(=O)c2ccc(OC)c(C)c2)C1` (configuration not stated) gave H5N1 antiviral 0.4.
NS(=O)(=O)c1ccc(Nc2nc(-c3ccc(O)cc3)cs2)cc1 was read as H5N1 antiviral 0.5.
`CCOc1ccc(C)cc1S(=O)(=O)N1CCCCC1` gave H5N1 antiviral 1.4.
`Cc1cc(C)c2c(-n3cccc3)c(C(=O)NNS(=O)(=O)c3ccc(Br)cc3)sc2n1` gave H5N1 antiviral 1.6.
For CCOC(=O)C1C(=O)NC(SCC(=O)Nc2nccs2)=C(C#N)C1c1ccccc1OCC (configuration not stated) the results were H5N1 antiviral 0.6.
Screening Cc1cccc(-c2nsc(SCC(=O)Nc3cc(C)on3)n2)c1 returned H5N1 antiviral inactive.
For CN(C(=O)c1ccc(Cl)cc1)C1=CCCCC1CCC#N (configuration not stated) the results were H5N1 antiviral 1.2.
`COCCCNC(=O)C1CCC(=O)N1Cc1ccccc1Cl` (configuration not stated) gave H5N1 antiviral inactive.
Screening CCCN(CCC)C(=O)CC(c1ccccc1)c1cc(Br)ccc1O (configuration not stated) returned H5N1 antiviral 0.0.
For CC1(C)Cc2c(C#N)c(N)n(-c3ccccc3)c(=O)c2CO1 the results were H5N1 antiviral inactive.
Screening CCOC(=O)Cc1c(C)c2c(C)[nH]nc2oc1=O returned H5N1 antiviral inactive.
For CCC(C)(C)NC(=O)CN(C(=O)c1snc(C(N)=O)c1N)c1ccc2c(c1)OCCO2 the results were H5N1 antiviral inactive.
`Cn1c(-c2ccc(N)cc2)nc2ccccc21` gave H5N1 antiviral 0.1.
CC(C)NC(=O)NC(=O)CSc1nnc(COc2ccccc2Cl)o1 was read as H5N1 antiviral 0.4.
`O=C(NCc1cccnc1)c1ccccn1` gave H5N1 antiviral inactive.
Cc1ccc2nc(C3CCCN(C(=S)Nc4cccc(C)c4C)C3)[nH]c2c1 (configuration not stated) was read as H5N1 antiviral 0.1.
For O=C(C1CCCN(S(=O)(=O)c2ccc(Cl)cc2)C1)N(Cc1cccs1)C1CC1 (configuration not stated) the results were H5N1 antiviral inactive.
Screening CC(C)C(=O)Nc1nc2cc3c(cc2s1)OCO3 returned H5N1 antiviral 1.4.
For COc1ccccc1N1CCN(C(=O)Nc2cccc(Cl)c2)CC1 the results were H5N1 antiviral inactive.
`CCCNc1nc2c(c(=O)[nH]c(=O)n2C)n1Cc1cccc(Br)c1` gave H5N1 antiviral inactive.
For CCn1c(CSc2nnc(-c3ccc4c(c3)OCO4)o2)nc2cc(S(=O)(=O)N(C)C)ccc21 the results were H5N1 antiviral 2.9.
COC(=O)c1ccccc1NC(=O)CN(CCc1ccccc1)S(C)(=O)=O was read as H5N1 antiviral inactive.
Screening NC(=O)Nc1ccc2c(c1)OCCO2 returned H5N1 antiviral inactive.
For Cc1cccc(NC(=O)c2cccc(NS(=O)(=O)c3ccc(Cl)cc3)c2)c1 the results were H5N1 antiviral 0.5.
Cc1ccc(-n2cc(C(=O)c3ccc4ccccc4c3O)cn2)cc1 was read as H5N1 antiviral inactive.
`O=C(Cc1ccc(Cl)cc1)NCCCn1ccnc1` gave H5N1 antiviral 0.6.
c1ccc(-c2nnc(N3CCN(c4ccccn4)CC3)c3ccccc23)cc1 was read as H5N1 antiviral inactive.
For COC(=O)c1ccccc1NC(=O)c1noc2c1CCC2 the results were H5N1 antiviral inactive.
Screening CCCCNC(=O)c1onc(CSc2ccccc2CC)c1C(=O)O returned H5N1 antiviral 0.0.
Screening CN(C)S(=O)(=O)c1ccc(C(=O)Nc2ccccc2C(=O)O)cc1 returned H5N1 antiviral inactive.
For Cc1nc(Nc2ccc(S(N)(=O)=O)cc2)oc1C the results were H5N1 antiviral 0.8.
For Cc1nn(C(C)c2nc(-c3ccccc3)no2)c(C)c1[N+](=O)[O-] (configuration not stated) the results were H5N1 antiviral inactive.
`O=C(CCNS(=O)(=O)c1cccc2nonc12)NCCc1ccc(Cl)cc1` gave H5N1 antiviral 0.2.
`COCCNC(=O)CN1CCOc2ccccc21` gave H5N1 antiviral 1.0.
For CCN(CC)C(=O)c1ccc(NS(=O)(=O)c2ccccc2)cc1 the results were H5N1 antiviral 1.8.
Cc1nc(NCCO)c(C#N)c2c1COC(C)(C)C2 was read as H5N1 antiviral 0.4.
CCC(CC)C(=O)Nc1cccc(C(=O)Nc2ccc(S(=O)(=O)Nc3ccc(C)cc3)cc2)c1 was read as H5N1 antiviral inactive.
For CCCN1Cc2cccc(C(=O)NCc3ccc4c(c3)OCO4)c2C1=O the results were H5N1 antiviral inactive.
For CC(=O)Nc1ccccc1NC(=O)CC(C)(C)C the results were H5N1 antiviral inactive.
CCOC(=O)c1ccc(Nc2nnc3nc(C)cc(C)n23)cc1 was read as H5N1 antiviral inactive.
For CC1(C)N(O)C2CCCCC2N1O (configuration not stated) the results were H5N1 antiviral inactive.
Screening CNS(=O)(=O)c1ccc(NC(=O)C(CCSC)NC(N)=O)cc1 (configuration not stated) returned H5N1 antiviral 0.8.
`COC(=O)c1cn(C(=O)c2cccs2)c2ccccc12` gave H5N1 antiviral inactive.
CCCCSC1(SCCCC)N=C(N)C2(C#N)C(c3ccccc3)NC(C)=CC12C#N (configuration not stated) was read as H5N1 antiviral inactive.
O=C(NCc1ccc(F)cc1)C1CCC(=O)N1C1CCCCC1 (configuration not stated) was read as H5N1 antiviral 0.6.
`CCC(C)C(NC(=O)c1ccc(Cl)cc1)C(=O)O` (configuration not stated) gave H5N1 antiviral inactive.
For CCn1cc(C(=O)OC(C)C(=O)Nc2c(C)n(C)n(-c3ccccc3)c2=O)c(=O)c2ccc(C)nc21 (configuration not stated) the results were H5N1 antiviral inactive.
`N#CC1=C(N)Oc2cc(N)ccc2C1c1ccc(F)cc1` (configuration not stated) gave H5N1 antiviral inactive.
For O=C(Nc1ccccc1)NC1CCN(CCCN2C(=O)c3ccccc3C2=O)CC1 the results were H5N1 antiviral inactive.
CC(C)C(NC(=O)c1ccc(S(=O)(=O)N2CCOCC2)cc1)c1nc2ccccc2[nH]1 (configuration not stated) was read as H5N1 antiviral 0.2.
For CCCNC(=S)N1CCC(c2nc3cc(C)c(C)cc3[nH]2)CC1 the results were H5N1 antiviral 0.6.
Screening Cc1nn2c3c(cnc2c1-c1ccccc1)C(=O)CCC3 returned H5N1 antiviral 1.2.
`O=C(Cn1nnc(-c2ccccc2)n1)OCc1csc(-c2ccccc2)n1` gave H5N1 antiviral inactive.
Screening Cc1ccc(NC(=O)COn2nnc3ccc(S(=O)(=O)N(C)C)cc32)cc1F returned H5N1 antiviral 2.7.
`CC(CCc1ccccc1)NC(=O)COC(=O)C1=COCCO1` (configuration not stated) gave H5N1 antiviral inactive.
Cc1ccc(C)c(S(=O)(=O)c2c(N)n(/N=C/c3ccco3)c3nc4ccccc4nc23)c1 was read as H5N1 antiviral inactive.
For Cc1csc(Nc2ccccc2C(F)(F)F)n1 the results were H5N1 antiviral inactive.
O=C(O)CCc1nn2cnc3sc4c(c3c2nc1=O)CCCC4 was read as H5N1 antiviral 1.8.
For CCN1CCc2nc(NC(=O)C(c3ccccc3)c3ccccc3)sc2C1 the results were H5N1 antiviral inactive.
`O=C(c1ccc(Cl)cc1)N(Cc1cccs1)C1CCS(=O)(=O)C1` (configuration not stated) gave H5N1 antiviral 2.9.
For CCSC1=NCN(CCCC(=O)O)CN1 the results were H5N1 antiviral 0.2.
For N#C/C(=C(/O)CN1CCN(c2ccccc2F)CC1)c1nc(-c2ccccc2)cs1 the results were H5N1 antiviral inactive.
Screening Cc1cccc(C)c1N/C=C/c1onc(C)c1[N+](=O)[O-] returned H5N1 antiviral inactive.
`Cc1ccccc1-n1c(Cn2c(=O)sc3ccccc32)nnc1SCC(=O)N1CCOCC1` gave H5N1 antiviral 0.5.
`NC(=O)C1CCCN(Cc2ccc(Cl)cc2)C1` (configuration not stated) gave H5N1 antiviral 0.9.
Screening CC(=O)c1ccc(NC(=O)C2CCC(C)NC2=O)cc1 (configuration not stated) returned H5N1 antiviral inactive.
`c1ccc(Cc2nnc3sc(Nc4ccccc4)nn23)cc1` gave H5N1 antiviral 1.7.
For C/C=C/c1ccccc1OCc1ccc(C(=O)O)o1 the results were H5N1 antiviral 0.2.
Screening CCC(C)NC(=O)CCNS(=O)(=O)c1ccc(Br)cc1 (configuration not stated) returned H5N1 antiviral inactive.
Screening CC(=O)C1=C(O)C(=O)N(c2ccc(C(=O)O)cc2)C1c1ccccc1 (configuration not stated) returned H5N1 antiviral 0.2.
`CCS(=O)(=O)NCCc1cc2cc(C)c(C)cc2[nH]c1=O` gave H5N1 antiviral inactive.
Cc1cc2cc(CN(Cc3ccco3)C(=O)NCc3ccccc3)c(=O)[nH]c2cc1C was read as H5N1 antiviral inactive.
`COCCNC(=O)Nc1ccc2nc(-c3cccs3)c(-c3cccs3)nc2c1` gave H5N1 antiviral 1.3.
Screening O=C(COc1ccc(S(=O)(=O)NC2CCCCC2)cc1Cl)N1CCN(c2ccccc2)CC1 returned H5N1 antiviral inactive.
`Cc1ccc(/C(N)=N/OC(=O)Cc2cccs2)cc1` gave H5N1 antiviral inactive.
`O=C(CCCC1=NS(=O)(=O)c2ccccc2N1)N1CCN(c2ccccc2)CC1` gave H5N1 antiviral 1.8.
COc1ccc(/C=C/C(=O)OC(C)CN2CCOCC2)cc1 (configuration not stated) was read as H5N1 antiviral inactive.
Screening O=C(CN(C(=O)C1CSC(=O)C1)c1ccccc1F)NCc1ccc2c(c1)OCO2 (configuration not stated) returned H5N1 antiviral 0.6.
For O=C(Cn1cnc2ccccc2c1=O)NCC(=O)N1CCN(c2ccccn2)CC1 the results were H5N1 antiviral inactive.
Screening CCCCN(CC)S(=O)(=O)c1ccc2c(c1)CCCN2C(C)=O returned H5N1 antiviral inactive.
For [O-][n+]1onc2c1CCC1N(O)CCC21O (configuration not stated) the results were H5N1 antiviral inactive.

Grouped by structure: the compounds so far containing a nitro group on carbon.
Screening COC(=O)c1ccc(N2CCN(S(=O)(=O)c3ccc(Br)cc3)CC2)c([N+](=O)[O-])c1 returned H5N1 antiviral 5.6.
For Cc1nn(C(C)c2nc(-c3ccccc3)no2)c(C)c1[N+](=O)[O-] (configuration not stated) the results were H5N1 antiviral inactive.
Screening Cc1cccc(C)c1N/C=C/c1onc(C)c1[N+](=O)[O-] returned H5N1 antiviral inactive.

More records follow:
For COc1ccc(C(C#N)Nc2ccccc2OC)cc1 (configuration not stated) the results were H5N1 antiviral 0.5.
Screening CC(C)OC(=O)C1C(=O)CC(C)(O)C(C(=O)OC(C)C)C1c1cccc(O)c1 (configuration not stated) returned H5N1 antiviral inactive.
`O=C(Nc1cccc2ccccc12)C12CC3CC(C1)CC(n1cnc([N+](=O)[O-])n1)(C3)C2` gave H5N1 antiviral 1.5.
Screening Nc1nc(N)nc(-c2ccc(Oc3ccccc3)cc2)n1 returned H5N1 antiviral inactive.
`CCCCn1c(NCCN(C)C)nc2c1c(=O)[nH]c(=O)n2C` gave H5N1 antiviral 0.6.
Screening O=C(COC(=O)c1ccccn1)Nc1ncc(C(F)(F)F)cc1Cl returned H5N1 antiviral 0.2.
Screening CCN(CC)CCOC(=O)c1ccc(N=Cc2c(O)[nH]c(=O)[nH]c2=O)cc1 returned H5N1 antiviral 5.4.
`CC(Oc1ccc(Cl)cc1Cl)C(=O)NCCCn1ccnc1` (configuration not stated) gave H5N1 antiviral 0.6.
Screening Cc1nn(Cc2ccc(Cl)cc2Cl)c(C)c1NC(=O)c1sc2ccccc2c1Cl returned H5N1 antiviral inactive.
For CCOC(=O)c1c(C)oc2c1c1c(c3ccccc32)OCN(Cc2cccnc2)C1 the results were H5N1 antiviral inactive.
For O=C1Nc2ccccc2C1=Nc1ccc(-c2nnc3n2CCCCC3)cc1 the results were H5N1 antiviral 0.7.

Structures shown so far containing two or more sulfur atoms (11):
NS(=O)(=O)c1ccc(Nc2nc(-c3ccc(O)cc3)cs2)cc1 was read as H5N1 antiviral 0.5.
`Cc1cc(C)c2c(-n3cccc3)c(C(=O)NNS(=O)(=O)c3ccc(Br)cc3)sc2n1` gave H5N1 antiviral 1.6.
For CCOC(=O)C1C(=O)NC(SCC(=O)Nc2nccs2)=C(C#N)C1c1ccccc1OCC (configuration not stated) the results were H5N1 antiviral 0.6.
Screening Cc1cccc(-c2nsc(SCC(=O)Nc3cc(C)on3)n2)c1 returned H5N1 antiviral inactive.
For O=C(C1CCCN(S(=O)(=O)c2ccc(Cl)cc2)C1)N(Cc1cccs1)C1CC1 (configuration not stated) the results were H5N1 antiviral inactive.
For CCn1c(CSc2nnc(-c3ccc4c(c3)OCO4)o2)nc2cc(S(=O)(=O)N(C)C)ccc21 the results were H5N1 antiviral 2.9.
Screening CNS(=O)(=O)c1ccc(NC(=O)C(CCSC)NC(N)=O)cc1 (configuration not stated) returned H5N1 antiviral 0.8.
CCCCSC1(SCCCC)N=C(N)C2(C#N)C(c3ccccc3)NC(C)=CC12C#N (configuration not stated) was read as H5N1 antiviral inactive.
`O=C(c1ccc(Cl)cc1)N(Cc1cccs1)C1CCS(=O)(=O)C1` (configuration not stated) gave H5N1 antiviral 2.9.
`Cc1ccccc1-n1c(Cn2c(=O)sc3ccccc32)nnc1SCC(=O)N1CCOCC1` gave H5N1 antiviral 0.5.
`COCCNC(=O)Nc1ccc2nc(-c3cccs3)c(-c3cccs3)nc2c1` gave H5N1 antiviral 1.3.

The list is partial; the hit share may differ from the screen's.
